MT1-MMP act inh: blockers of MT1-MMP proenzyme processing, primary screen, HT1080 RFP-PRO-GFP cells, GFP/RFP fluorescence; Matrix metalloproteinase-14 (Homo sapiens), P50281; GFP/RFP ratio fluorescence, overnight; percent of plate control window, DMSO zero; GFP/RFP ratio change, % at 20 µM; 360,000 compounds, 0.061% hits; AID 651647, 2012;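 active means GFP/RFP ratio change of at least 30% with cell ATP level not reduced by more than half and red fluorescence within 50% of control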; further: strong numbers were not always called active
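Material – HT1080 RFP-PRO-GFP cells · Control set – DMSO wells and RFP-L50D-GFP cells · Incubation – overnight cell settling, then overnight compound exposure, 37 °C, 5% CO2 · Compound dosing – single-point 20 µM compound, 1% DMSO · Read-out – GFP/RFP fluorescence ratio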
eIF4H inh: human eIF4H binding inhibitors, primary screen, translation initiation inhibitor project, biochemical, uHTS, fluorescence polarization. Eukaryotic translation initiation factor 4H (Homo sapiens), Q15056. eIF4H fluorescence polarization binding assay. inhibition, % at 35 µM. 290,000 compounds, 0.94% hits;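 active means 50% or more with normal probe brightness, or confirmed in later tests; inconclusive means above 50% with abnormal brightness, or retests that disagree; inactive means below 50% or failed in later tests; about a fifth of its hits are not listed in these tables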;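 further: calls also rest on retests at 20 µM and on dose response follow-up; 0% = protein and probe with vehicle and 100% = probe without protein; strong numbers were not always called active; many hits fall short of the cut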
Yeast UUG start: modulators of yeast start codon fidelity, primary screen, whole organism, S. cerevisiae, single point, plate reader; activity score, % at 18.7 µM; 350,000 compounds, 0.13% hits; S. cerevisiae UUG-firefly luciferase reporter, luminescence/redox ratio; AID 602363, 2012;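 active means replicate mean at a twofold rise or more, about +100% in these data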;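 further: firefly luciferase made from a UUG start codon reports start codon fidelity; reporter light over untreated wells divided by growth signal over untreated wells; some hits fall short of that in this replicate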
Rce1 inhib: yeast Rce1p protease inhibitors, primary screen, biochemical, fluorescence, cell-free homogeneous | CAAX prenyl protease 2 (Saccharomyces cerevisiae (strain ATCC 204508 / S288c)), Q03530 | yeast membranes, quenched prenylated peptide cleavage fluorescence | calls only | 290,000 compounds, 0.27% hits | AID 2563, 2010;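 active means fall in fluorescence gain of 50% or more versus controls, with final raw signal at or below 3038400; inconclusive means same 50% fall but final raw signal above 3038400; inactive means fall in fluorescence gain under 50%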;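 further: plate controls were neutral control wells for no effect and wells lacking membranes for full effect; tested at 10 µM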
Target sequence (Q03530 whole entry, looked up): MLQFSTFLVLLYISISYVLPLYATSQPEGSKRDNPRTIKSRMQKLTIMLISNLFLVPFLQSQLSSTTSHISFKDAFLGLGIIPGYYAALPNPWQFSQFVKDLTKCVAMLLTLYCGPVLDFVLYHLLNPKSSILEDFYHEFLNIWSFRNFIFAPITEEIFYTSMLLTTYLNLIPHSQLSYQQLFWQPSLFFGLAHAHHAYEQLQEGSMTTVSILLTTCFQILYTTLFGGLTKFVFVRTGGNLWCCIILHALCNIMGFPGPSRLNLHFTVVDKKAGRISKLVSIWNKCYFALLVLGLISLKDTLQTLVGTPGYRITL
PABP FP inh: PABP poly(A) RNA binding inhibitors, primary screen, biochemical, fluorescence polarization, uHTS; Polyadenylate-binding protein 1 (Homo sapiens), P11940; inhibition, % at 35 µM; 290,000 compounds, 1% hits; AID 2014, 2009;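 active means 50% or more with normal probe brightness, or confirmed in later tests; inconclusive means above 50% with abnormal brightness, or retests that disagree; inactive means below 50% or failed in later tests; about a fifth of its hits are not listed in these tables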;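 further: calls also rest on retests at 20 µM and on dose response follow-up; controls were probe without protein and protein plus probe with vehicle; some compounds called inactive have numbers as strong as hits; many hits fall short of the cut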
Target sequence (P11940 whole entry, looked up): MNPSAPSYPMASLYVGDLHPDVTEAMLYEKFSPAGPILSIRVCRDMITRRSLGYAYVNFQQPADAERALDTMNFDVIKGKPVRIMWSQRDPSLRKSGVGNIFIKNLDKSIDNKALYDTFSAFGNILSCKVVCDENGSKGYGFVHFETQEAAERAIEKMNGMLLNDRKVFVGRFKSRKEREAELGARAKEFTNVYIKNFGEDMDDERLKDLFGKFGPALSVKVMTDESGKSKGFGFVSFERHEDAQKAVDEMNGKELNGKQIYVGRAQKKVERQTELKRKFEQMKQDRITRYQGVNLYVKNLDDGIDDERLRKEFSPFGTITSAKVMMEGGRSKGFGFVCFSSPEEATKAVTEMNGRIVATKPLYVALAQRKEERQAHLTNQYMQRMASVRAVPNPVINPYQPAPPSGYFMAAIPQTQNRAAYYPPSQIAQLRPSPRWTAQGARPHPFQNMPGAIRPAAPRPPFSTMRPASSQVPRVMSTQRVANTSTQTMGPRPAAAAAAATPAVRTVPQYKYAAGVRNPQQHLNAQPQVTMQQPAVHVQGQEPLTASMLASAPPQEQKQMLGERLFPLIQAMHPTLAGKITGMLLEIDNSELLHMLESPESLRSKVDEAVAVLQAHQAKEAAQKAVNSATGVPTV
HIV Env fusion: inhibitors of HIV-1 Env-driven cell-cell fusion, primary screen, HeLa-JRFL effector, CEM21 target cells, luciferase | AID 651610, 2012 | inhibition, % at 12.3 µM | 360,000 compounds, 1.1% hits;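 active means mean replicate inhibition score of at least 50 and every replicate individually at or above 50; inconclusive means only one of the two criteria met; inactive means mean below 50 and not all replicates reaching 50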;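 further: 0% = plate neutral controls and 100% = maraviroc near 300 nM; one replicate is shown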
CSC inhib: cancer stem cell viability inhibitors, primary screen, luminescence; inhibition, % at 7.5 µM; AID 2717, 2010; cancer stem cell-like cells viability; 300,000 compounds, 1.1% hits;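 active means mean at 75% or more and at least half the replicates too; inconclusive means mean and replicates disagree; tested in HMLE shEcad cells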;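 further: 0% = median of negative and 100% = median of positive control wells; the first replicate is given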
eIF4H inh retest: also measured in eIF4H inh; calls as there; inhibition, %; compound at 20 µM; confirmation average;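 mean of two retest wells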
PABP FP inh retest: second read-out of PABP FP inh, no call of its own (marks repeat the call); inhibition, %; compound at 20 µM; confirmation repeats;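 mean of two retest wells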
MT1-MMP act inh RFP: also measured in MT1-MMP act inh; calls as there; RFP signal change, %; measured here: RFP expression control read;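 0 = vehicle wells; hits needed this value within 50% of zero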
Numbers without * were called inactive; i = inactive; ? = inconclusive; / = not tested or not shown. These rows are one share of the data; the hit share may differ from the screen's.

SMILES	MT1-MMP act inh	MT1-MMP act inh RFP	eIF4H inh	Yeast UUG start	Rce1 inhib	PABP FP inh	HIV Env fusion	CSC inhib	others
COc1cc([N+](=O)[O-])ccc1-c1ccc(/C=N/NC(=O)OC(C)(C)C)o1	-5	5	37	-20	i	5	-24	7
O=C(O)CCN1C(=O)CC2(CCCCC2)C1=O	0	6	-1	-8	i	7	/	-9
O=C(NNS(=O)(=O)c1ccc(Br)cc1)NC1CCCCC1	0	3	7	-19	i	-9	-7	-4
COCc1cc(C)nc(N2CCN(c3ccccc3)CC2)c1C#N	-5	-11	4	2	i	-5	-73	7
O=C(CNC(=O)C1COc2ccccc2O1)N/N=C/c1cc(Br)c(O)c(Br)c1 (stereo not given)	10	0	7	-4	i	13	-1	-5
COC(=O)c1cc(C#N)c(Oc2ccc(F)cc2)nc1C	0	-4	1	-15	i	-3	/	-1
CCOC(=O)Cc1csc(NC(=O)CCC(=O)O)n1	-1	3	-12	-3	i	-4	0	-5
COc1ccc(-n2c(SCC3CNC(=O)O3)nnc2-c2ccc(Cl)cc2)cc1 (stereo not given)	-7	-4	3	-3	i	4	16	-8
O=C(c1cccc(C(F)(F)F)c1)c1c[nH]c(C(=O)NCC2CCCO2)c1 (stereo not given)	0	0	-6	/	i	-8	18	-7
CC(C)C[C@@H](CN)NC(=O)c1nc[nH]c1C(=O)N[C@@H](C)C(=O)CNC[C@H](C)NC(=O)c1nc[nH]c1C(=O)N[C@@H](CC(=O)O)C(=O)O	0	3	/	-2	/	/	11	/
CC(C)C(=O)Nc1cccnc1	2	4	-14	-8	i	13	10	-2
N#Cc1c(NC(=O)CCC(=O)O)sc2c1CCCCC2	-16	-4	64	/	i	42	11	-4	eIF4H inh retest=-7;PABP FP inh retest=-3
COCC(=O)Nc1nc(-c2ccc(-c3ccccc3)cc2)cs1	-1	-8	-3	-25	i	6	-153	28
Cn1c(N)c(C(=O)COC(=O)c2cccc(S(=O)(=O)N3CCOCC3)c2)c(=O)n(C)c1=O	5	3	/	/	/	/	-25	9
O=C(Nc1ccc(Cl)cc1)Nn1cnc2ccccc2c1=O	1	-2	-5	-7	i	-8	1	3
CC(C)C[C@H](NC(=O)c1nc[nH]c1C(=O)N1CCC(C)CC1)C(=O)OCc1ccccc1	3	0	5	-12	i	3	-23	-14
CC(C)NCc1nnc(-c2ccc(Cl)cc2)o1	-2	0	-12	/	i	-11	-15	/
Cc1cc(C)n(CCOc2nonc2N)n1	-1	1	-2	-10	i	1	-10	-10
O=C(CN1CCC(Cc2ccccc2)CC1)Nc1ccc2c(c1)OCCO2	/	/	2	/	i	2	-9	3
CC1(C)Cc2c(sc3nc(NCCN4CCOCC4)n4ncnc4c23)CO1	-1	-1	-9	-4	i	1	/	-14
O=C(CCC(=O)N1CCOc2ccccc21)N1CCN(c2ccccc2)CC1	3	-3	-8	1	i	-4	-5	-9
Cc1nnc(NC(=O)c2cc(S(=O)(=O)N3CCCCC3)ccc2Cl)s1	0	1	2	-1	/	-3	-4	-2
Cc1ccccc1Nc1nc(-c2sc(NC(=O)c3ccccc3)nc2C)cs1	/	/	0	/	i	2	/	12
O=C(c1cccc2ccccc12)N1CCN(c2ccc([N+](=O)[O-])c(NCc3ccco3)c2)CC1	5	-3	10	-14	i	0	16	10
N=c1c(C(=O)NCCN2CCOCC2)cc2c(=O)n3ccccc3nc2n1Cc1ccc(F)cc1	2	3	4	-8	i	0	-3	-9
CCCCC(=O)NC(=S)Nc1ccc(S(=O)(=O)N2CCCC2)cc1	2	3	-7	/	i	-6	-10	1
CN(CCCn1cnc2c(OCc3ccccc3)ncnc21)CCc1ccccn1	1	1	/	-24	/	/	-65	/
CCOC(=O)c1ccc(NC(=O)N2CCN(C3CCCCC3)CC2)cc1	-2	-1	2	-4	i	-11	/	-2
O=C(CCCC(=O)NC1CCCC1)NC1CCCC1	1	2	-2	/	i	9	5	-6
O=C(Nc1ccc2oc(-c3ccncc3)nc2c1)c1ccc2c(c1)OCO2	5	-1	-28	/	i	-59	10	-6
CCN1C[C@@H]2[C@@H]3C(=O)N(C)C(=O)[C@@H]3[C@](C)(C1=O)N2C(=O)c1ccc(C)cc1	3	6	/	17	/	/	-2	/
Fc1ccc(NCc2cccnc2)cc1F	-18	6	?	/	i	?	/	1
CC(=O)C(Cc1ccccc1)NC(=O)COC(=O)c1cc(S(=O)(=O)N2CCOCC2)ccc1F (stereo not given)	2	5	/	6	/	/	13	/
Cc1cc(OCCN2CCCCCC2)ccc1[N+](=O)[O-]	4	2	4	/	i	1	1	/
CSC(=NC#N)N1CCN(c2ccccc2)CC1	2	2	4	-19	i	2	-29	-6
CCC/C=C/c1ccc(CN2C(CC(C)C)C(=O)N(Cc3cn(CCC4OCCO4)nn3)CCS2(=O)=O)cc1 (stereo not given)	1	-1	/	-2	/	/	16	/
CCC(CCC(=O)NNC(=O)Cc1ccc([N+](=O)[O-])cc1)C(=O)O (stereo not given)	0	3	-4	-2	i	-10	12	/
CN(C)/C=C/C(=O)c1nn(-c2ccc(F)cc2)ccc1=O	-4	-1	-4	2	i	-12	18	-7
COc1ccc(-c2[nH]ncc2CNCCCSC)cc1F	-1	0	-4	8	i	-1	11	-8
O=[N+]([O-])c1ccc(N2CCN(S(=O)(=O)c3ccccc3)CC2)cc1NCc1cccnc1	1	1	-5	/	i	-1	/	/
CCCC(C)C(=O)OCC(=O)Nc1c(Br)cc(C)cc1Br (stereo not given)	2	7	11	-6	i	-6	16	-2
CC1CC(C)CN(S(=O)(=O)c2ccc(NC(=O)C3COc4ccccc4O3)cc2)C1 (stereo not given)	2	0	-1	-11	i	-10	9	-5
Cc1ccc(S(=O)(=O)c2cn(C)c3cc(N4CCN(C)CC4)c(F)cc3c2=O)c(C)c1	-3	-4	/	-7	i	/	4	-13
COc1ccc(C2C3=C(OC(C)=O)c4ccccc4C3=Nc3c2c(=O)n(C)c(=O)n3C)cc1 (stereo not given)	-6	-1	14	-9	i	8	-53	-10
COc1ccc(C)cc1NC(=O)NNS(=O)(=O)c1ccc(NC(C)=O)cc1	-2	2	-1	-15	i	7	-4	-3
COc1ccc(CCNC(=O)COC(=O)c2cccs2)cc1	4	3	/	2	/	/	-9	/
CSCCC(NC(=O)COc1ccccc1)C(=O)O (stereo not given)	-2	-1	0	1	i	-8	5	-8
COc1ccc(C(C)NC(=O)C2C(=O)NC3(C)CC2c2ccccc2O3)cc1 (stereo not given)	0	2	-1	0	i	-9	/	-16
O=C(COc1ccc(S(=O)(=O)N2CCOCC2)cc1)Nc1ccccc1F	0	-4	/	/	i	/	-8	-7
CN(C)c1cccc2c1c(NC(=O)c1ccc(F)cc1)nn2C	3	2	-7	-11	i	-4	4	-3
COCCNc1nc(N)c([N+](=O)[O-])c(NCCO)n1	3	3	5	/	i	3	-14	3
CCOc1ccccc1C(=O)N(CN1CCCC1=O)c1ccc(C)c(Cl)c1	3	0	0	-16	i	-1	31	11
CCOC(=O)N1CCN(C(=O)Cn2ccc3c(OC)cccc3c2=O)CC1	-5	0	0	-14	i	5	5	11
Cc1nn(C)c(C)c1NC(=O)CSc1nnc(C)n1-c1ccccc1	-2	-4	-4	1	i	-7	/	-2
Cc1cc2cc(CCNS(C)(=O)=O)c(=O)[nH]c2cc1C	4	4	-16	-10	i	-7	/	0
COc1ccccc1/C=C/CN1CC(C)OC(C)C1 (stereo not given)	-1	2	-9	-13	i	8	13	/
Cc1cc(C)n(Cc2ccc(C(=O)O)cc2)n1	3	-2	8	-20	i	12	/	2
Cc1ccc(S(=O)(=O)N2CCC(Oc3ccc(-n4cnnn4)cc3)CC2)cc1	-3	-14	2	1	i	6	1	34
CP(=O)(COC(=O)c1ccccc1)COC(=O)c1ccccc1	2	3	-3	14	i	-5	/	-15
COC(=O)c1[nH]c2ccccc2c1NC(=O)c1ccccc1[N+](=O)[O-]	-5	-1	8	/	i	-2	-6	-11
Other structures
SMILES	MT1-MMP act inh	MT1-MMP act inh RFP	eIF4H inh	Yeast UUG start	Rce1 inhib	PABP FP inh	HIV Env fusion	CSC inhib	others
CCOc1ccc(NC(=O)c2c3c(nc4ccccc24)CCC3)cc1	0	0	8	/	/	11	-1	7
Cn1c(-c2c(N)n(CCCc3ccccc3)c3nc4ccccc4nc23)nc2ccccc21	-27	-5	-9	-14	i	-13	/	/
Cc1cc(N/C=C2\CCCCC2=O)no1	0	2	-6	-4	i	-1	/	-11
CCCC(=O)n1nc(-c2cccnc2)nc1N	0	3	-8	15	i	0	-134	1
c1ccc(-c2ccc(CN3CCSCC3)cc2)cc1	2	-1	2	-10	i	22	-16	11
COc1ccc(Cc2nnc(NC(=O)c3ccc(Cl)c([N+](=O)[O-])c3)s2)cc1	1	1	-11	-23	i	1	-14	-1
CCc1cc2c(NCC(=O)O)ncnc2s1	1	0	68	-26	/	2	/	-12	eIF4H inh retest=1;PABP FP inh retest=1
COC(=O)c1cccc(S(=O)(=O)N(Cc2ccco2)Cc2cc3ccc(OC)cc3[nH]c2=O)c1	1	-7	-4	-7	i	1	17	24
CC(=O)C1C(c2ccc(Cl)cc2)NC(=O)NC1(O)C(F)(F)F (stereo not given)	3	2	5	-13	i	4	-14	-6
Cc1ccc(N2CCN(C(=O)c3cc(COc4c(C)cccc4C)on3)CC2)c(C)c1	3	1	69	-8	/	-4	/	-10	eIF4H inh retest=25;PABP FP inh retest=8
O=C(Nc1ccc(F)cc1F)N1CCCN(c2ccc([N+](=O)[O-])cn2)CC1	6	-11	-11	-15	i	-5	4	-12
CCc1nc2ccc(C(=O)NCCCN3CCCC3=O)cn2c1N(C)C(=O)c1cccc(OC)c1	1	3	/	-2	/	/	-12	/
Cc1cc(C)cc(N(CC(=O)N2CCc3ccccc32)S(=O)(=O)c2c(C)noc2C)c1	-5	1	-7	-21	i	-2	-11	-4
CCCNC(=O)C1CCN(S(=O)(=O)c2ccc3nc4c(c(C(=O)O)c3c2)CCCCC4)CC1	1	3	-6	-15	i	-15	9	/
CCOC(=O)N1CCN(C(=O)c2ccccc2NC(=O)COc2ccccc2C)CC1	5	-7	7	-25	i	3	-37	-19
O=C(CCNC(=O)c1ccccc1Cl)Nc1nc(-c2ccc(F)cc2)cs1	-2	-3	-4	/	i	6	24	10
O=C(O)CCCNc1ccc(S(=O)(=O)Nc2ccccc2C(=O)O)cc1C(=O)O	1	1	-8	-12	i	11	9	/
Cc1noc(C)c1C(=O)Nc1nc(-c2ccc(F)cc2)cs1	0	-1	/	5	/	/	-15	/
CO[C@H]1C=CO[C@@]2(C)Oc3c(C)c(O)c4c(O)c(c5c(nc6cc(C)ccn65)c4c3C2=O)NC(=O)C(C)=CC=C[C@H](C)[C@H](O)[C@@H](C)[C@@H](O)[C@@H](C)[C@H](OC(C)=O)[C@@H]1C	/	/	7	/	i	7	/	/

Source: PubChem BioAssay
